# B2AR ag = human beta-2 adrenergic receptor agonism by FAP; response, % (no concentration beside the values); AID 504454; P07550; Am2.2-beta2AR cells, FAP receptor internalization, flow cytometry; reference of the scale not given here; 340,000 tested, 0.43% active;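 active = response above a set limit, near 3 SD of response in nonfluorescent compounds, cut at about 42% in these data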;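 also: stock transfer was 100 nL into about 11 µL; a reference agonist was the positive control; negative values mostly stem from fluorescent compounds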
# LANA-H2A inh = blocks KSHV LANA binding to histone H2A/H2B; Q9QR71; cell-free LANA-H2A/H2B peptide, fluorescence polarization; inhibition, % (concentration not given with the values); 320,000 tested, 0.6% active; AID 2629; in the data active = inhibition mostly above about 10%, no sharp cut-off; inactive = mostly below about 6.7%;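 also: stock transfer was 7.5 nL into about 10 µL; 0% = median of vehicle wells and 100% = median of positive control wells; one replicate is shown; the record names a cut of 25% in any replicate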
# Target sequence (Q9QR71 whole entry, looked up): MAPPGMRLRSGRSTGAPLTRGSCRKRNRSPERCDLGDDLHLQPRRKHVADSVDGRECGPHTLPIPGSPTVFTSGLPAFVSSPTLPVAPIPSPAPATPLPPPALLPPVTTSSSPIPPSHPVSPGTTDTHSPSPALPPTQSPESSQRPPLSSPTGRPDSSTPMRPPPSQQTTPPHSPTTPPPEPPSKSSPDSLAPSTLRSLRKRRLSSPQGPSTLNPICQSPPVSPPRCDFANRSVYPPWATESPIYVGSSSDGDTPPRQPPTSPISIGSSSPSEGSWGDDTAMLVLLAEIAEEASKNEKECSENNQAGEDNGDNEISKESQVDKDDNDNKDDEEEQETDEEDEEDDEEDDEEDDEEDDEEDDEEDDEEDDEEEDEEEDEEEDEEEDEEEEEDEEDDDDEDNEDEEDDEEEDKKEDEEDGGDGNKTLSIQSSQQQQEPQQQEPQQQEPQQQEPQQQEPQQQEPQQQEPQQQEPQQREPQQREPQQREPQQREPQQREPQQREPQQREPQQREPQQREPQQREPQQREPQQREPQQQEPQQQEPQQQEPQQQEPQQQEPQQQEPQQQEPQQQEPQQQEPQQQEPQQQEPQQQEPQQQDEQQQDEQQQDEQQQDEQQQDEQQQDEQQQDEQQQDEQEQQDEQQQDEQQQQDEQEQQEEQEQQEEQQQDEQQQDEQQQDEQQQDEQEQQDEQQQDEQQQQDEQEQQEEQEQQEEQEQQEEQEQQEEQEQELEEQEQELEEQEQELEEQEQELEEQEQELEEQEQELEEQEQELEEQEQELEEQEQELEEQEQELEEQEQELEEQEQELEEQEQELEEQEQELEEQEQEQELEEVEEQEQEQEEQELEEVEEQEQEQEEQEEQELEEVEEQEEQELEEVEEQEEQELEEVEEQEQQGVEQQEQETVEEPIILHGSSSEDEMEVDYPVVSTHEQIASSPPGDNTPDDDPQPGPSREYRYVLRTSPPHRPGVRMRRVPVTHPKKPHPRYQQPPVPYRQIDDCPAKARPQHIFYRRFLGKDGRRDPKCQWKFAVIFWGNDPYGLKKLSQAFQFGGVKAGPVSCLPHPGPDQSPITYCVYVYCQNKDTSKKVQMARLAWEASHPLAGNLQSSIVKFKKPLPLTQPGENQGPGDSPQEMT
# Beta cell apopt = beta cell apoptosis inhibition | INS-1E cytokine-induced death, ATP luminescence, 48 h; percent of positive-control rescue, neutral wells zero | protection from apoptosis, % (no concentration beside the values) | 300,000 tested, 0.8% active;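 active = all replicates at 75% or more, or half of them and the mean; inconclusive = half reach 75% but not the mean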;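 also: 0% = cytokine-treated negative control wells and 100% = positive control rescue; higher means more ATP so stronger rescue from cytokine killing; wells of about 40 µL received 100 nL stock; the first replicate is given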
# ALR H2O2 inh = blocks human ALR sulfhydryl oxidase activity | purified ALR, DTT oxidation, H2O2 HRP-luminol luminescence | inhibition, % (no concentration beside the values) | 290,000 tested, 3.8% active | AID 485317 | P55789;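 active = mean and each replicate at 75% or more; inconclusive = only one of the two met; inactive = neither met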;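 also: stock transfer was 7.5 nL into about 7.5 µL; 0% = neutral wells and 100% = wells with inactivated enzyme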
# T cruzi inh = blocks replication of Trypanosoma cruzi | T. cruzi beta-gal in NIH3T3, luminescence, 90 h | inhibition, % (test concentration not listed) | 300,000 tested, 1.4% active | AID 1885;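 active = mean inhibition across valid replicates above about 55%, limit read from the data; inconclusive = mean below that limit but half or more replicates reach it; inactive = mean below it, under half of replicates reach it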;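 also: signal also drops with host cell toxicity which is not excluded here; 0% = plate median of DMSO wells and 100% = zero luminescence signal; higher percent means less beta-gal luminescence so fewer parasites; stock transfer was 50 nL into about 50 µL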
# A1 inh = inhibitors of the anti-apoptotic protein A1, read as caspase activation. 330,000 tested, 0.066% active. AID 2462. MEF A1-2A-BIM cells, Caspase-Glo 3/7 luminescence, 3 h; percent of clofoctol response, vehicle zero. caspase activation, % (no concentration beside the values);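 active = over half of replicate activation scores above 10%, or exactly half above 10 with the replicate mean above 10; inconclusive = replicate mean below 10 yet half the replicates above 10; inactive = over half of replicates below 10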;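 also: wells of about 30 µL received 50 nL stock; many hits fall short of the cut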
# rRNA inh HTS = inhibits bacterial ribosomal RNA function over humanized ribosomes | GFP signal change (wild-type ribosome), % (no concentration beside the values) | 350,000 tested, 1.6% active | AID 720706 | E. coli WT GFP vs humanized-ribosome RFP mutants, fluorescence, 24 h; active compounds read low; DMSO median 0, no signal -100;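 active = significant combined selectivity score with lowered wild-type GFP, culture density cut under 30%, mutant RFP and density less affected; inactive = any of these conditions unmet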; also: one replicate is shown; some compounds called inactive have numbers as strong as hits
# Calb FLC = affects C. albicans growth with fluconazole; C. albicans CaCi-2 (fluconazole-resistant clinical isolate) + fluconazole, Alamar Blue growth, 48 h; growth inhibition, % (no concentration beside the values); 300,000 tested, 0.57% active; AID 1979;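 active = most replicates above 75%; inconclusive = exactly half above 75%; inactive = most below 75%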;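 also: all wells also contain fluconazole at 8 µg/ml as a sub-toxic cotreatment; 0% = median of DMSO wells and 100% = median of geldanamycin control wells; wells of about 8 µL received 7.5 nL stock; the first replicate is given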
# rRNA inh HTS OD600 = second read-out of rRNA inh HTS, no call of its own (marks repeat the call); OD600 change, %; measured here: OD600 growth;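 optical density of the mix in the first replicate; 0 = DMSO median and -100 = no signal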
# rRNA inh HTS RFP = also measured in rRNA inh HTS; calls as there; RFP signal change, %; measured here: RFP humanized mutant strains;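 first replicate; 0 = DMSO median and -100 = no signal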
# * hit, by the source's call; u = inconclusive; x = no result given.
SMILES,B2AR ag,LANA-H2A inh,Beta cell apopt,ALR H2O2 inh,T cruzi inh,A1 inh,rRNA inh HTS,rRNA inh HTS OD600,rRNA inh HTS RFP,Calb FLC
O=C(CSc1nc2ccccc2[nH]1)Nc1ccccc1N1CCOCC1,-6,-0.6,-4,x,2,1.0,x,x,x,u
O=C(CN1CCCC1)NC(c1ccccc1)c1ccccc1,-1,1.8,-2,-7,-2,0.3,13,19,0.9,1
CCCC(=O)OCCn1c(Br)nc2c1c(=O)[nH]c(=O)n2C,8,-1.9,-2,22,-8,-0.7,x,x,x,-3
CCOC(=O)c1cnc(-n2nc(C)cc2C)nc1NC,-8,-2.8,0,0,-8,-0.4,x,x,x,-9
Cc1c(CC(=O)N2CCC(C(=O)O)CC2)c(=O)oc2cc3c(cc12)CCC1(CCCCC1)O3,-5,6.0,x,-24,-7,0.2,x,x,x,1
CCN=C1SC(CC(=O)NCCc2ccc(OC)c(OC)c2)C(=O)N1CC (configuration not stated),-23,0.8,3,0,2,0.1,x,x,x,4
CNC(=O)c1c(Cl)cnn1-c1ccccc1,2,5.1,-6,-8,-67,-0.5,7,6,1.0,-4
O=C(O)CCCCCNC(=O)CSc1nnc(-c2ccco2)n1-c1ccccc1,-3,5.6,1,0,-1,0.2,1,13,-0.5,3
Cc1ccsc1CN1CCC(C(=O)NCc2ccccc2Cl)CC1,-2,5.7,-6,-6,10,-0.7,x,x,x,-5
CCOCCCNC(=O)C(NC(=O)CNC(C)=O)c1ccc(Cl)cc1 (configuration not stated),6,-4.0,-9,13,-8,0.4,x,x,x,-2
Cc1ccc(S(=O)(=O)Nc2cccc(C(=O)N3CCCC3)c2)cc1F,6,0.1,1,-6,-7,-0.6,-1,4,0.3,4
CCN(CC)c1nc(N)c2c(N)nc(OC)cc2c1C#N,2,-5.4,-4,u,20,-0.2,9,-2,-5.2,4
COC(=O)C1(c2ccccc2)NC(c2ccc(O)cc2)C2C(=O)N(c3ccc4c(c3)OCO4)C(=O)C21 (configuration not stated),0,3.4,-3,-3,6,-0.5,4,2,-0.4,-1
Cc1cccc(C)c1NC(=O)Cn1c(=O)c(N2CCCCC2)c(N)n(C)c1=O,7,1.0,-5,5,x,2.7,20,1,3.6,x
O=C(CCN1C(=O)c2cccnc2C1=O)NC1CCCCCC1,-1,-3.9,-3,0,-5,1.4,x,x,x,-2
O=C(Nc1ccccc1N1CCCC1)c1ccc([N+](=O)[O-])cc1Cl,-3,1.4,0,27,56*,0.7,5,4,-0.7,9
O=S(=O)(NN1CCOCC1)c1ccc(Br)cc1,2,-1.8,-2,27,-7,0.0,14,12,-4.4,x
CC1(C)C(=O)Nc2ccccc2N1C(=O)COC(=O)c1cc(S(=O)(=O)N2CCOCC2)ccc1F,5,4.3,-4,x,5,0.0,-13,-7,-1.3,7
O=C(NCCc1ccccc1)c1cccc2c1C(=O)N(C1CCCCC1)C2,-8,2.2,-2,-2,32,-0.2,0,-6,2.6,3
Cn1nnc2cc(NC(=O)NCc3ccc4c(c3)OCO4)ccc21,13,-2.9,7,-27,-3,-0.2,8,2,2.9,12
O=C(COC(=O)c1cc(=O)c2ccccc2o1)Nc1ccc2ccccc2c1,-8,4.2,1,-9,-19,-0.5,x,x,x,-4
COC(=O)c1ccc2c(=O)n(CCCCCC(=O)O)c(=O)[nH]c2c1,-1,-4.1,-2,1,-4,0.4,4,11,-4.4,-10
CC1=CCC2C(=O)N(CCc3c[nH]c4ccccc34)C(=O)C2C1 (configuration not stated),6,0.0,-4,27,12,1.5,x,x,x,19
CC(C)C(NS(=O)(=O)c1ccc2c(c1)OCCO2)C(=O)NCCc1ccccn1 (configuration not stated),3,-0.2,1,-3,-4,0.3,x,x,x,0
O=C(CC1Sc2ncnn2C1=O)Nc1ccc(Cl)cc1 (configuration not stated),x,0.1,0,2,-2,-0.2,6,9,-5.9,20
O=C(CN1CCN(c2ccccc2)CC1)Nc1ccccc1Cl,-13,1.9,-2,98*,3,0.0,15,-4,2.2,4
O=C(c1ccco1)N1CCN(S(=O)(=O)c2ccc3c(c2)OCCO3)CC1,16,-5.0,-1,-8,1,0.8,x,x,x,5
O=[N+]([O-])c1ccc(/C=N/Nc2ncc(Br)cn2)cc1,-3,-2.5,-8,-8,-1,-0.2,7,10,-1.4,5
C=CCSC1=C(C#N)C(c2cc(Br)c(O)c(OC)c2)CC(=O)N1 (configuration not stated),-3,-0.2,-8,24,-5,-0.1,1,-3,0.8,-6
CCOC(=O)C1=C(Cc2ccc(Cl)cc2)C(=O)c2ccccc2C1=O,-335,14,6,1,x,0.2,x,x,x,40
O=C(Cc1c[nH]c2ccccc12)NCc1cccs1,-3,-6.3,-13,22,-27,-0.2,3,7,-3.0,1
Cc1ccccc1NS(=O)(=O)c1ccc(C)c(NS(C)(=O)=O)c1C,5,-7.7,-4,3,-3,2.0,-3,-4,-0.7,-22
O=C(CSc1nc(-c2ccccc2)nc2ccc(F)cc12)Nc1cccc(C(=O)O)c1,11,-1.2,-3,x,2,0.4,-1,13,-1.9,10
CCC(=O)Nc1ccc(C(=O)N/N=C/c2cccnc2)cc1,3,-0.2,-1,-33,-17,1.4,x,x,x,u
Cc1ccc(Sc2c([N+](=O)[O-])c(C)nn2C)cc1,2,2.1,-7,-3,-27,1.2,-11,-6,-1.8,15
O=C(COC(=O)CCC1CCCC1)Nc1ccc(F)cc1Cl,-1,6.3,-9,x,x,0.3,x,x,x,x
Cc1cc(C)nc(N2CCC(C(=O)NCc3ccccc3F)CC2)n1,0,6.5,-2,-8,17,0.5,9,14,-5.4,-22
Cc1ccc(S(=O)(=O)N2[C@@H](c3ccc(C(C)(C)C)cc3)C(C(=O)O)=CC[C@H]2c2ccc(C(C)C)cc2)cc1,7,-7.5,-2,x,x,1.5,1,10,-4.3,x
COc1ccc(-n2nnnc2SCC(=O)Nc2ccccc2N2CCOCC2)cc1OC,-5,6.0,2,-12,8,-0.6,7,-2,0.7,18
Cc1cc(C)c[n+](CC(=O)c2c(C)cc(C)c([N+](=O)[O-])c2C)c1,2,6.0,-3,39,-2,1.0,0,5,-1.5,2
CCOc1cc(/C=N/N=C/c2ccc(O)c(OCC)c2)ccc1O,-3,-3.9,-9,7,-5,1.9,2,5,-18,-2
O=C(NCCN1Cc2ccccc2C1=O)c1cccs1,-12,5.2,8,-3,-6,2.6,x,x,x,u
O=C(Nc1ccc(OCC(=O)N2CCOCC2)cc1)c1cccc(Cl)c1,-8,0.7,-1,-2,-7,-0.6,-3,1,-2.1,0
Brc1cccc(OCCSc2ncccn2)c1,-1,1.6,-8,-20,6,-0.2,-32,-48,0.3,-2
O=C(Nc1cccc(-c2nc3ncccc3o2)c1)c1sc2ccccc2c1Cl,30,-5.1,7,-9,10,1.1,x,x,x,-4
Cc1cc(=O)oc(C)c1C(=O)NCCNC(=O)c1c(C)cc(=O)oc1C,-2,3.5,1,-1,-8,0.9,x,x,x,2
COc1ccc(-c2csc(Nc3ccc(O)cc3)n2)cc1,6,-0.4,-31,74,-28,0.1,-4,5,3.9,4
COc1cc2cc(CCOC(=O)N3CCCCC3)oc(=O)c2cc1OC,-4,0.6,-5,-7,x,-1.2,-2,-3,-3.6,x

# Record cards (already shown). Order of values: B2AR ag, LANA-H2A inh, Beta cell apopt, ALR H2O2 inh, T cruzi inh, A1 inh, rRNA inh HTS, rRNA inh HTS OD600, rRNA inh HTS RFP, Calb FLC
# Cc1ccc(S(=O)(=O)N2[C@@H](c3ccc(C(C)(C)C)cc3)C(C(=O)O)=CC[C@H]2c2ccc(C(C)C)cc2)cc1 is entered as 7, -7.5, -2, x, x, 1.5, 1, 10, -4.3, x
# COc1ccc(-c2csc(Nc3ccc(O)cc3)n2)cc1 is entered as 6, -0.4, -31, 74, -28, 0.1, -4, 5, 3.9, 4
# Cc1cc(=O)oc(C)c1C(=O)NCCNC(=O)c1c(C)cc(=O)oc1C is entered as -2, 3.5, 1, -1, -8, 0.9, x, x, x, 2

# Carrying on:
SMILES,B2AR ag,LANA-H2A inh,Beta cell apopt,ALR H2O2 inh,T cruzi inh,A1 inh,rRNA inh HTS,rRNA inh HTS OD600,rRNA inh HTS RFP,Calb FLC
CSc1nc2c(c(=O)[nH]c(=O)n2C)n1C/C=C(\C)Cl,-16,-2.4,3,-1,0,-0.5,x,x,x,-1
COCC(COS(N)(=O)=O)C(C)C (configuration not stated),-7,-0.5,x,1,-20,-1.1,18,16,-3.3,2
Cc1cc(C)cc(NC(=O)NCC2CCN(Cc3cc(C)ccc3C)CC2)c1,23,3.5,1,1,13,1.3,6,10,1.2,-23
COCCn1c(SCC(=O)N2CCCc3ccccc32)nc2ccccc2c1=O,-4,-1.3,4,-5,18,0.4,x,x,x,4
CC1CCCC(C)N1C(=O)COC(=O)c1cncc(Br)c1 (configuration not stated),-4,7.9,0,-1,x,-1.0,5,16,8.6,x
COC(=O)CSc1ncnc2c1cnn2-c1ccc(C)cc1C,2,6.8,4,97*,-15,0.7,-5,-2,2.1,-4
CC1Cc2ccccc2N1C(=O)c1cc2cccnc2n(C)c1=O (configuration not stated),1,2.1,x,-5,-14,1.2,2,5,-0.7,1
CC1(C)Cc2c(c(N3CCOCC3)nc3sc4c(NCc5ccccc5)nnnc4c23)CS1,-3,-13,8,-7,62*,0.1,x,x,x,-8
Cc1ccc(S(=O)(=O)N2CCCC(C(=O)NCCc3ccc(S(N)(=O)=O)cc3)C2)cc1 (configuration not stated),-11,-0.1,-1,-8,-2,0.2,2,-5,1.3,-5
CC1=C(C(=O)Nc2ccccn2)C(c2ccccc2)n2ncnc2N1 (configuration not stated),-4,0.0,-5,8,-4,0.3,x,x,x,-5
COc1cc(Cl)cc(/C=C/c2ccc3ccccc3n2)c1OC(C)=O,-2,8.1,12,-4,-10,0.4,x,x,x,4
CC(/C=C/c1ccc2c(c1)OCO2)=N\NC(=O)C(O)c1ccccc1 (configuration not stated),1,-1.2,4,-3,-10,-0.4,x,x,x,19
C=CCN1CC2CC3(COc4cc(C)cc(C)c4)C=CC2(O3)C1=O (configuration not stated),4,5.9,-5,-1,-4,-0.2,x,x,x,-2
S=C(c1nc2ccccc2[nH]1)N1CCOCC1,3,-4.7,-4,x,3,-1.4,x,x,x,11
CCOC(=O)c1nc(N)sc1C(=O)OCC,-2,-4.1,x,x,-3,1.0,x,x,x,2
CC1(C(=O)OCC(=O)NCCNC(=O)COC(=O)C2(C)CC2(Cl)Cl)CC1(Cl)Cl (configuration not stated),-6,-6.2,-1,1,-9,-0.5,-6,-14,0.5,-2
COc1ccc(C(=O)Nc2nc3cc4c(cc3s2)OCCO4)c(OC)c1,54*,-6.5,13,10,-4,-1.1,7,6,-4.6,6
CCOC(=O)c1cc2c(=O)[nH]c(C(Cl)(Cl)Cl)nc2o1,-11,-1.2,6,5,1,-2.4,5,1,3.4,-15
COc1ccc([N+](=O)[O-])cc1CSc1ccccn1,-9,-6.0,-3,-5,-13,-0.4,-15,-13,0.4,-12
COc1ccccc1N1CCN(Cc2cc(OC)c3c(c2)OCO3)CC1,-13,-14,-8,18,-11,0.9,-2,-4,-3.8,5

# Screens as filed in PubChem BioAssay.

# A portion of the library; rates above refer to the full screens.
